MgrA DNA FP = S. aureus MgrA activity modulators, primary screen, biochemical, S. aureus Newman, fluorescence polarization; MgrA-DNA binding; inhibition, %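 (about 10 µg/mL by stock and volumes)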; hit rate 0.13% among 84,000; AID 602314, 2012;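 active = above 50% in either of two replicates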;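 note: 0% = protein plus DNA without compound and 100% = DNA alone without protein; higher means less MgrA bound to DNA so lower polarization; one replicate is shown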
Sa helicase inh = inhibitors of S. aureus replicative helicase, primary screen, biochemical, fluorescence unwinding readout; replicative DNA helicase (DnaC/DnaB), Staphylococcus aureus; AID 485395, 2010; purified S. aureus helicase, fluorescence unwinding assay; about half of the hits fall short of the stated cut; inhibition, %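 (tested at about 80 µM)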; hit rate 0.05% among 120,000;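 active = both duplicates at 50% or more, or one of them with a favoured structure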;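 note: 0% = mean of negative control wells and 100% = mean of positive control wells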
An asterisk follows results filed as active; / = no result given.

MgrA DNA FP	Sa helicase inh	molecule
0.8	11.0	OCCN1CCN(c2nc(-c3ccccc3)c3cc(Cl)ccc3n2)CC1
0.2	/	O=C(c1csc2ccccc12)N1CC=C(c2ccccc2)CC1
/	-9.0	Cc1ccc(Cn2ccsc2=NC(=O)COC(=O)c2ccc(-n3cnnn3)cc2)cc1
3.1	7.0	CC(Sc1nc2ccccc2[nH]1)c1nc2ccccc2c(=O)[nH]1 (stereo unspecified)
-2.5	/	COC(=O)C1=C(C)NC2=C(C(=O)CCC2)C1c1sccc1C (stereo unspecified)
1.3	11.0	CC(C)N(Cc1nc(-c2ccccc2)no1)C(=O)c1ccc2c(c1)OCO2
4.3	/	O=C(NCCc1cccs1)N1CCN(C2c3ccccc3-c3ccccc32)CC1
-2.4	/	COc1ccc(C2NC(=O)NC(C)=C2C(=O)OC2CCCC(C)C2)cc1Br (stereo unspecified)
/	-1.0	CC(=O)Nc1cccc(Oc2nc(C)nc3sc4c(c23)CCCC4)c1
/	12.0	Cc1ccc(NNC(=O)c2cccnc2Oc2ccccc2)cc1
4.2	6.0	COC(=O)C1=CN(CC2CCCO2)C=C(C(=O)OC)C1c1ccccc1 (stereo unspecified)
-3.5	8.0	CC1=CC(C)(C)NC(=S)N1C(C)c1ccccc1 (stereo unspecified)
1.4	-3.0	COc1ccc(CCNC(=O)Nc2ccc(Cl)cc2)cc1OC
-0.7	/	CC(C)=C1C2C=CC1C1C(=O)N(c3ccc(Br)cc3[N+](=O)[O-])C(=O)C21 (stereo unspecified)
/	-10.0	CN1CCN(C(=O)CN2C(=O)S/C(=C\c3ccc(Cl)cc3)C2=O)CC1
/	-13.0	CCOc1ccc(C(=O)Nc2c(C)nc3nc[nH]n3c2=O)cc1OCC
/	15.0	O=C(c1ccc2c(=O)n3c(nc2c1)CCCCC3)N1CCCCC1
-0.3	/	N#Cc1cnc2cc(-c3cccs3)nn2c1N
/	5.0	CCC(C)C(NC(=O)c1ccccc1NC(=O)c1ccc(OC)cc1)C(=O)N1CCOCC1 (stereo unspecified)
1.1	9.0	COc1c(F)c(F)c(C(=O)O)c(Nc2ccc(C)cc2C)c1F
-1.1	-6.0	CC1CCN(C(=O)C2Cc3ccccc3CN2S(=O)(=O)c2ccc(F)cc2)CC1 (stereo unspecified)
-2.1	5.0	CC(C)(C)C(=O)C1C2CCC1C(O)C2 (stereo unspecified)
/	0.0	O=C(O)c1ccc(-n2[nH]c(=S)sc2=S)cc1
1.4	/	Cc1cc(Oc2ccnc3cc(Cl)ccc23)cc(C)c1Cl
-6.2	11.0	O=C(NC1CCCc2ccccc21)c1ccc(CS(=O)c2ccc(Br)cc2)o1 (stereo unspecified)
-3.6	7.0	Cc1cccc(NC(=O)CCn2c(=O)oc3ccccc32)c1
0.0	13.0	CSc1nnc(Cn2c(=O)sc3ccccc32)n1-c1ccccc1C
0.5	/	O=C(C1=NOC2(C(=O)c3ccccc3C2=O)C1c1ccccc1)c1ccccc1 (stereo unspecified)
-4.6	6.0	CC1SC(/N=C/c2ccc(N(C)C)cc2)=NNC1=O (stereo unspecified)
/	-12.0	Cc1noc2nc(-c3cccnc3)cc(C(F)(F)F)c12
/	-16.0	CCn1c(=O)/c(=C\c2ccc(Cl)cc2)s/c1=C(/C#N)c1nc2ccccc2n1C
-0.7	/	COc1ccc(OCc2ncc(C(F)(F)F)cc2Cl)cc1
-33.9	0.0	C=CCC1N(c2ccccc2)C(=O)C2C(C(=O)O)C3C=CC21O3 (stereo unspecified)
/	4.0	Cc1ccc(S(=O)(=O)N2CCN(CC(=O)N3CCCC3)CC2)c(C)c1
/	3.0	O=C(O)c1cccc2cccc(S(=O)c3ccccc3)c12 (stereo unspecified)
/	-15.0	Cc1ccc2onc(CNC(=O)N3CCCCCC3)c2c1
-1.0	/	Cc1cc(C)nc(NS(=O)(=O)c2ccc(NC(=O)c3ccc(S(=O)(=O)N4CCOCC4)cc3)cc2)n1
/	-7.0	C=CCn1c(C)cc(C(=O)COC(=O)c2ccc3c(c2)NC(=O)CS3)c1C
/	2.0	COc1ccc(C2NC3=C(CCC3)C3(C#N)C(OC)(OC)N=C(N)C23C#N)cc1 (stereo unspecified)
0.0	/	COC(=O)c1cnc2c(c(C)nn2C)c1OC
1.2	/	COc1cc(/C=C2/SC(=Nc3ccccc3)NC2=O)ccc1OCC(=O)O
10.5	15.0	S=C(c1ccc(Cl)cc1)N1CCCCC1
-1.1	-15.0	Cc1ccc(NC(=O)COC(=O)C2CCC2)cc1Cl
-1.1	/	O=C1c2ccccc2C(=O)c2c(Nc3ccccc3Cl)ccc(Nc3ccccc3Cl)c21
/	9.0	Cc1cc(COC(=O)c2ccc(OCc3ccccc3)cc2)no1
/	3.0	COC(=O)COc1cc(NO)ccc1N=O
1.9	5.0	OC1CCN(C(=S)Nc2ccccc2)CC1
/	-13.0	CC(Sc1nncn1-c1ccccc1)C(N)=O (stereo unspecified)

Shown with values under each structure: entries from further up.
Every second line gives: MgrA DNA FP	Sa helicase inh
COC(=O)COc1cc(NO)ccc1N=O
    /	3.0
Cc1ccc(NC(=O)COC(=O)C2CCC2)cc1Cl
    -1.1	-15.0
OC1CCN(C(=S)Nc2ccccc2)CC1
    1.9	5.0
CC(Sc1nncn1-c1ccccc1)C(N)=O (stereo unspecified)
    /	-13.0

(listing goes on)
MgrA DNA FP	Sa helicase inh	molecule
/	13.0	Cc1cc(NC(=O)CSCC(=O)O)n(C)n1
/	8.0	O=C(NCCCN1CCOCC1)c1ccc(CS(=O)(=O)c2c(Cl)cccc2Cl)o1
/	-2.0	N#CC(C#N)=Cc1c(-c2ccccc2)nc2ccccn12
-2.6	13.0	COc1ccccc1C1C(C#N)=C2N=C(N)c3ccccc3N2C2=C1C(=O)CCC2 (stereo unspecified)
/	-3.0	CNC(=O)Nc1nncnc1C(=O)O
4.5	/	O=C(Nc1nc2ccccc2n1Cc1ccc(Cl)cc1)c1ccco1
1.1	10.0	N=C1/C(=C/c2ccc(OCCOc3ccccc3)c(Cl)c2)C(=O)N=C2SC=CN12
6.8	/	S=c1nccc(-c2ccc3c(c2)CCO3)[nH]1
/	-4.0	O=C(NC1CCCCC1)C1CCN(C(=O)c2ccccc2)CC1
/	3.0	CCCCC(=O)NCc1ccc2[nH]c3c(c2c1)CCCC3
-1.4	/	CS(=O)(=O)c1scc(-c2ccccc2)c1C#N
1.4	-3.0	O=S(=O)(Cc1cccc(Cl)c1)c1nc(C(F)(F)F)cc(C(F)(F)F)n1
-10.2	4.0	O=C(CN1CCN(Cc2ccccc2)CC1)N1CCCCCC1
0.3	/	CCCCCCCC/C=C\CCCCCCCCOC[C@H](COP(=O)([O-])OCC[N+](C)(C)C)OC(C)=O
-1.1	6.0	Nc1cccc(OCc2ccccc2F)c1
0.0	/	COc1ccc(NC(=O)CC(CC(=O)O)c2ccccc2)cc1 (stereo unspecified)

Next section; the last 2 above are carried over.
MgrA DNA FP	Sa helicase inh	molecule
-1.1	6.0	Nc1cccc(OCc2ccccc2F)c1
0.0	/	COc1ccc(NC(=O)CC(CC(=O)O)c2ccccc2)cc1 (stereo unspecified)
/	8.0	CC(C(=O)OCC(=O)N1CCCC1)N1C(=O)c2ccccc2C1=O (stereo unspecified)
/	-6.0	CC(OC(=O)c1cccc(N(C)C)c1)C(=O)c1ccc(Cl)cc1 (stereo unspecified)
/	5.0	O=C(NC(=S)N1CCN(C(=O)c2ccco2)CC1)c1ccc(S(=O)(=O)N2CCOCC2)cc1
-2.2	/	COc1ccc2c(c1)CCCN2C(=O)NC(=O)c1c(F)cccc1Cl
/	-19.0	COc1ccc(OC2CCN(S(=O)(=O)c3ccccc3)CC2)cc1
0.5	-1.0	Cc1ccc(S(=O)(=O)N2CCNCC2)cc1
-2.3	/	CCOC(=O)C1=C(C)N=c2s/c(=C\c3cc(Br)c(OC)cc3OC)c(=O)n2C1c1cccs1 (stereo unspecified)
-2.0	-4.0	CC(C)N(Cc1ccccc1)C(=O)CN1C(=O)CSc2cc(S(=O)(=O)N3CCCC3)ccc21

Overlap with the part before: 2 compounds, followed by the next part.
MgrA DNA FP	Sa helicase inh	molecule
-2.3	/	CCOC(=O)C1=C(C)N=c2s/c(=C\c3cc(Br)c(OC)cc3OC)c(=O)n2C1c1cccs1 (stereo unspecified)
-2.0	-4.0	CC(C)N(Cc1ccccc1)C(=O)CN1C(=O)CSc2cc(S(=O)(=O)N3CCCC3)ccc21
0.2	/	O=C(O)c1cc(C(F)(F)F)cc(C(F)(F)F)c1
/	33.0	Cc1ccc(S(=O)(=O)NC2CCSC2=O)cc1 (stereo unspecified)
2.0	3.0	COc1cccc(/C=C2/CCC/C(=C\c3cccc(OC)c3OC)C2=O)c1OC
/	-13.0	COc1ccc(-n2cc(C(=O)NC3CCCCCCC3)nn2)cc1
3.1	15.0	CCOc1cc(-c2cc(C)c3c(ccc4ccccc43)n2)ccc1O
/	8.0	COC(=O)c1c[nH]n2c(NC3CCCCC3)c(-c3cccs3)nc12
/	-26.0	Cc1ccc(-n2nc3c(N4CCC(C(=O)N5CCCC5)CC4)nnc(C)c3c2C)cc1
2.9	/	O=C(OCCCN1C(=O)c2cccc3c(N4CCCCC4)ccc(c23)C1=O)c1ccccc1[N+](=O)[O-]
/	-12.0	O=C1c2cccnc2C(=O)N1Cc1ccc(S(=O)(=O)N2CCOc3ccccc3C2)cc1
/	-14.0	CCCN(C(=O)c1cccs1)c1nc(-c2ccccc2)cs1
0.4	7.0	COc1ccccc1C(OC(=O)c1ccco1)C(=O)NCC1CCCO1 (stereo unspecified)
10.4	6.0	Cc1ccc(C)c(NC(=O)c2nccnc2COC(=O)c2cccc(F)c2)c1
0.5	7.0	O=C(CN1C(=O)CC(c2ccccc2)Sc2ccccc21)c1ccccc1 (stereo unspecified)
/	-8.0	Cc1occc1-c1nnc(SCC(=O)NCC(=O)Nc2ccc(F)cc2)n1Cc1ccccc1
/	1.0	O=c1c2ccccc2nc(-c2ccccc2)n1C1CCS(=O)(=O)C1 (stereo unspecified)
/	-5.0	C=CCNc1nc(C(=O)OCc2cccc(S(=O)(=O)N(C)C)c2)cs1
/	-20.0	CCc1nnc2sc(-c3cccs3)nn12
0.4	/	CCCC(=O)N(c1ccccc1)C1CC(C)Nc2ccccc21 (stereo unspecified)
4.1	/	O=c1c(-c2ccccc2)c(O)cc(-c2ccc(F)cc2)n1-c1ccccc1
/	27.0	Cn1nc2c3c(cccc3c1=O)-c1ccccc1-2
-1.6	/	COc1cc(C2NC(=O)NC(C)=C2C(=O)OC2CCCCCCC2)cc(Br)c1O (stereo unspecified)
1.6	-6.0	CC(C)(N)COc1nonc1N
0.0	/	O=C1CNC(=S)N1CCc1ccncc1
/	-6.0	CC1CN(Cc2nc3c(c(=O)n(C)c(=O)n3C)n2Cc2c(F)cccc2Cl)CC(C)O1 (stereo unspecified)
-2.0	3.0	CCOC(=O)N1CCC(NC(=O)Cn2ncc3c2-c2cc(C)ccc2OC3)CC1
/	4.0	O=C(O)Cn1ncc2c1-c1ccoc1CC2
/	-26.0	Cn1c(C(=O)NCCCc2ccccc2)cc2oc3ccccc3c21
1.1	12.0	O=C1CON(c2ccc(Cl)c(Cl)c2)C(=O)N1
/	-6.0	O=S(=O)(Nc1ccccc1Cl)c1ccc2nc(Nc3ccc4c(c3)CCC4)oc2c1
-2.7	12.0	Cc1ccc(-c2nc(C#N)c(NCCN3CCCCC3)o2)cc1
-3.7	/	Cc1nc(-c2ccc(C#N)cc2)cs1
/	-13.0	CCOC(=O)C1CCN(C2CC(=O)N(c3c(C)cccc3C)C2=O)CC1 (stereo unspecified)

An excerpt from above in order of number of heavy atoms, smallest number first:
MgrA DNA FP	Sa helicase inh	molecule
6.8	/	S=c1nccc(-c2ccc3c(c2)CCO3)[nH]1
/	3.0	CCCCC(=O)NCc1ccc2[nH]c3c(c2c1)CCCC3
/	9.0	Cc1cc(COC(=O)c2ccc(OCc3ccccc3)cc2)no1
-2.2	/	COc1ccc2c(c1)CCCN2C(=O)NC(=O)c1c(F)cccc1Cl
/	-6.0	CC1CN(Cc2nc3c(c(=O)n(C)c(=O)n3C)n2Cc2c(F)cccc2Cl)CC(C)O1 (stereo unspecified)
-1.0	/	Cc1cc(C)nc(NS(=O)(=O)c2ccc(NC(=O)c3ccc(S(=O)(=O)N4CCOCC4)cc3)cc2)n1

The listing continues.
MgrA DNA FP	Sa helicase inh	molecule
1.1	/	O=C(Nc1ccccc1-c1nc2ccccc2[nH]1)c1cc([N+](=O)[O-])cc([N+](=O)[O-])c1Cl
-1.2	5.0	O=C(Cn1ncc2ccccc21)NC1CCCc2ccccc21 (stereo unspecified)
/	-29.0	COc1cccc(C(=O)NNc2cc(C(F)(F)F)ccn2)c1
1.8	/	Cc1cc(Oc2ccc(Cl)c(C)c2)c2ccccc2n1
-0.4	/	Nc1nc(-c2ccccc2)ns1
2.4	7.0	O=C(Oc1ccccc1/C=C1/N=C2CCCCCN2C1=O)c1ccccc1Cl
1.1	/	O=C1N=c2ccc(Br)cc2=C1c1sc(=S)n(NC(=O)c2ccccc2Cl)c1O
/	6.0	Cc1ccc(C(=O)OCCN2CCCCC2)cc1
/	36.0	Cc1cc(C)c2c(n1)sc1c(=S)nc[nH]c12

These rows are one share of the data. The share of hits here may be higher or lower than overall.
